Screens as filed in PubChem.
Rango dissoc inh = qHTS Assay for Inhibitors of RanGTP induced Rango (Ran-regulated importin-beta cargo) - Importin beta complex dissociation; Snurportin-1 (Homo sapiens) + GTP-binding nuclear protein Ran (Homo sapiens) + Importin …; Biochemical FRET Rango-importin beta, RanGTP-induced dissociation; Potency, µM (highest dose often 46.1 µM), without a hit: at the top dose activity change, negative = inhibition; 340,000 compounds, 0.071% hits; active means falling FRET ratio curve, often poorly fitted, with flat reads before Ran was added; inconclusive means other falling curves, or compound fluorescence or quenching; inactive means flat or rising ratio curve;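 also: potency is read from the fitted curve at half-maximal effect; % of control where 0% means no effect; nearly all actives have a fitted effect of over 45% in size; -100% = wells without RanGTP and RCC1; the record marks most hits as doubtful in a second field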
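Two FRET readings bracket the reaction: one 5 min after compound meets Rango–importin beta, another 45 min after RanGTP-RCC1 (0.6 uM Ran, 0.2 uM RCC1, 2 mM GTP) is added. Only the second defines inhibition.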
GLA inh pH 4.5 = qHTS Assay for Inhibitors of Human alpha-Galactosidase at pH 4.5; Alpha-galactosidase A (Homo sapiens), P06280; purified enzyme, 4-MU-alpha-Gal fluorescence, pH 4.5; activity change, negative = inhibition, % at 105 µM; 230,000 tested, under 10 active; inconclusive = small, poorly fitted or top-dose-only inhibition, or a rising curve; inactive = flat fitted curve, though single readings scatter; no compound was filed as active;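 also: 0% = full activity with enzyme and -100% = basal without enzyme; dose as in the result columns while the protocol names 77 µM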
Rango complex inh = qHTS Assay for Inhibitors of Rango (Ran-regulated importin-beta cargo) - Importin beta complex formation; Potency, µM (top dose mostly 92.2 µM), for inactives: at the top dose inhibition of complex formation; Rango CFP/YFP FRET sensor + importin beta, 45 min; Importin subunit beta-1 (Homo sapiens), Q14974; AID 540263, 2011; 340,000 compounds, 0.031% hits; active = rising FRET ratio curve, often small or poorly fitted; inconclusive = mostly compound fluorescence or quenching in the first reads; inactive = flat curves in all reads;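 also: potency is read from the fitted curve at half-maximal effect; 0% = DMSO wells and 100% = buffer wells lacking importin beta; nearly all actives have a fitted effect of over 15% in size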
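FRET biosensor Rango (snurportin 1 IBB between N-terminal EYFP and C-terminal Cerulean), 50 nM in PBS/1 mM DTT/0.02% Tween-20/0.1% BSA, preincubated 5 min RT with compound; 0.125 microM importin beta added, 45 min RT, CFP/YFP FRET ratio read.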
miR-21 reporter = qHTS Assay for Modulators of miRNAs and/orActivators of miR-21. Potency, µM (titrated, usually from 38.3 µM), for inactives: at the highest dose reporter change, positive = more light. HeLa miR-21 FLuc reporter, luciferase, 48 h. AID 2288, 2010. 340,000 tested, under 10 active; active = well fitted rising curve with a large enough effect; inconclusive = small, poorly fitted or top-dose-only effect; inactive = no such curve, though single readings can be large or run the other way;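 also: % of control where 0% means no effect; miR-21 action dims this reporter so a rising signal means less miR-21 action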
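HeLa cells endogenously expressing miR-21, stably carrying CMV-driven firefly luciferase with a downstream miR-21 binding site, 2000 cells/well. Titrations up to approximately 40 uM, 48 hours; luciferase luminescence read.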
Active calls of the source: *; ? = inconclusive. Only part of the results is shown. The share of hits here may be higher or lower than overall.

Short keys: A = Rango dissoc inh; B = GLA inh pH 4.5; C = Rango complex inh; D = miR-21 reporter
1) Cc1c(N=Nc2c(O)[nH]c(=S)[nH]c2=O)c(=O)n(-c2ccccc2)n1C
  A = ? | B = 2 | C = -0.5% | D = -2%

2) CC(C(=O)Nc1ccc(Br)cc1C(=O)c1ccccc1)N1CCOCC1 (configuration not stated)
  A = -14% | B = 1 | C = 4.3% | D = 0%

3) CN1C(=O)C(C2c3ccccc3C(=O)N2Cc2ccc([N+](=O)[O-])cc2)C(=O)N(C)C1=O (configuration not stated)
  A = 1% | B = 3 | C = -0.9% | D = -2%

4) Cc1cc(C)cc(N2C(=O)NC(=O)/C(=C\c3cccn3-c3ccc(Cl)cc3)C2=O)c1
  A = 1% | B = -15 | C = -0.5% | D = 0%

5) CCOC(=O)c1c(-c2ccc(OC)cc2)oc2ccc(OC(=O)N(C)C)cc12
  A = 2% | B = 8 | C = -3.7% | D = 13%

6) Cc1[nH]c2ccccc2c1C(=O)CN1CC=C(c2ccccc2)CC1
  A = ? | B = 1 | C = ? | D = 6%

7) COc1cccc(OC)c1C(=O)Nc1nc(N)n(-c2ccccc2)n1
  A = 5% | B = -1 | C = -0.8% | D = -2%

Of the compounds above, 2 contain an NH in an aromatic ring:
Short keys: A = Rango dissoc inh; B = GLA inh pH 4.5; C = Rango complex inh; D = miR-21 reporter
1) Cc1c(N=Nc2c(O)[nH]c(=S)[nH]c2=O)c(=O)n(-c2ccccc2)n1C
  A = ? | B = 2 | C = -0.5% | D = -2%

6) Cc1[nH]c2ccccc2c1C(=O)CN1CC=C(c2ccccc2)CC1
  A = ? | B = 1 | C = ? | D = 6%

In a second layout: 2 of the compounds above
1. Cc1c(N=Nc2c(O)[nH]c(=S)[nH]c2=O)c(=O)n(-c2ccccc2)n1C
- Rango dissoc inh = ?
- GLA inh pH 4.5 = 2
- Rango complex inh = -0.5%
- miR-21 reporter = -2%
2. CC(C(=O)Nc1ccc(Br)cc1C(=O)c1ccccc1)N1CCOCC1 (configuration not stated)
- Rango dissoc inh = -14%
- GLA inh pH 4.5 = 1
- Rango complex inh = 4.3%
- miR-21 reporter = 0%

Of the compounds above, these have an aryl methoxy group.
Short keys: A = Rango dissoc inh; B = GLA inh pH 4.5; C = Rango complex inh; D = miR-21 reporter
5) CCOC(=O)c1c(-c2ccc(OC)cc2)oc2ccc(OC(=O)N(C)C)cc12
  A = 2% | B = 8 | C = -3.7% | D = 13%

7) COc1cccc(OC)c1C(=O)Nc1nc(N)n(-c2ccccc2)n1
  A = 5% | B = -1 | C = -0.8% | D = -2%
